Bioassay records from PubChem BioAssay.
LANA-H2A inh – blockers of LANA interaction with H2A/H2B – biochemical, FP readout, HTS, primary screen. Protein LANA1 (Human herpesvirus 8 type P (isolate GK18)), Q9QR71. 320,000 tested, 0.6% active. inhibition, % (concentration not given with the values). cell-free LANA-H2A/H2B peptide, fluorescence polarization; in the data active = inhibition mostly above about 10%, no sharp cut-off; inactive = mostly below about 6.7%;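 note: stock transfer was 7.5 nL into about 10 µL; 0% = median of vehicle wells and 100% = median of positive control wells; one replicate is shown; the record names a cut of 25% in any replicate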
Vif TR-FRET – inhibitors of Vif binding to APOBEC3G peptide, primary screen, biochemical, TR-FRET, GST-Vif 1-94, biotin-A3G peptide, dose response retest (AID 1117319). Virion infectivity factor (Human immunodeficiency virus type 1 group M subtype B (isolate …. 260,000 tested, 0.57% active. TR-FRET GST-Vif / biotin-A3G peptide binding; higher % means a stronger effect; test concentration not given here; strong numbers were not always called active. inhibition, %, or IC50 in µM where a hit was titrated;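 active = above the screen mean plus three standard deviations and confirmed in dose response; inconclusive = results disagree or hit not tested in dose response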;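 note: Vif residues 1-94 fused to GST binding biotinylated APOBEC3G peptide 110-148; 0% = full assay without inhibitor and 100% = GST in place of GST-Vif; retest series ran down from 100 µM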
UCH37 inh – inhibitors of human UCH37 deubiquitinase, primary screen, biochemical, Ub-AMC cleavage, fluorescence; purified proteasome/UCH37; inhibition, % (concentration not given with the values); 330,000 tested, 0.33% active;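 active = mean of two replicates above 20%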;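 note: 0% = compound-free wells with enzyme and 100% = wells lacking proteasome; stock transfer was 100 nL into about 20 µL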
Target sequence (Q9Y5K5 whole entry, looked up): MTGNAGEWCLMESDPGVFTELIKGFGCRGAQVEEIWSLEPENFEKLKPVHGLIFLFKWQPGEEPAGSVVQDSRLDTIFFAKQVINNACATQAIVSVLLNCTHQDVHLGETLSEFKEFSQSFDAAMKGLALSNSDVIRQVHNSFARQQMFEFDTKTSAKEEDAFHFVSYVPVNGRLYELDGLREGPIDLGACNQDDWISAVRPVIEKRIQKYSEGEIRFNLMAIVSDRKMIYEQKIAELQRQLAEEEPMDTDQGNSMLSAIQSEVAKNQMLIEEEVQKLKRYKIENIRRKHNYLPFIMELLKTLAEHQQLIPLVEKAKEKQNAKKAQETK
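Schedule: 30 min plus 25 min, room temperature / Material: human UCH37 within purified proteasomes / Technique: AMC fluorescence intensity at 355/460 nm / Buffer or medium: pH 7.4 Tris-HCl (50 mM) with ovalbumin, ATP-MgCl2, DTT / Controls: wells without proteasome as full block, compound-free enzyme plus substrate as uninhibited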
B2AR ag – beta2AR agonists driving receptor internalization, primary screen, cell-based, FAP fluorogen, flow cytometry; Beta-2 adrenergic receptor (Homo sapiens), P07550; Am2.2-beta2AR cells; reference of the scale not given here; response, % (no concentration beside the values); 340,000 tested, 0.43% active;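 active = response above a set limit, near 3 SD of response in nonfluorescent compounds, cut at about 42% in these data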;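 note: stock transfer was 100 nL into about 11 µL; a reference agonist was the positive control; negative values mostly stem from fluorescent compounds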
E coli growth – E. coli growth inhibition, primary screen, OD600 | Escherichia coli growth, 23 h; active compounds read low | AID 1053175, 2014 | 330,000 tested, 0.21% active | OD600 absorbance (concentration not given with the values);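 active = OD600 absorbance below the run mean of sample wells minus 3.6 SD, in any replicate, cut at about 0.56 in these data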;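 note: stock transfer was 300 nL into about 60 µL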
HNF4A DNA FP – change in binding of human HNF4A to DNA, primary screen, biochemical, fluorescence polarization, FITC-DNA | Hepatocyte nuclear factor 4-alpha (Homo sapiens), P41235 | 360,000 tested, 0.3% active | 1 h | activity change, % at 10 µM | AID 1224865, 2016; in the data active = activity change above about 30%, passing the limit was not always enough;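 note: controls were the assay level and a saturating level of protein; the project sought stronger binding though the title names inhibitors; some compounds called inactive have numbers as strong as hits; positive values seem to mean higher polarization but the record does not say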
Target sequence (P41235 whole entry, looked up): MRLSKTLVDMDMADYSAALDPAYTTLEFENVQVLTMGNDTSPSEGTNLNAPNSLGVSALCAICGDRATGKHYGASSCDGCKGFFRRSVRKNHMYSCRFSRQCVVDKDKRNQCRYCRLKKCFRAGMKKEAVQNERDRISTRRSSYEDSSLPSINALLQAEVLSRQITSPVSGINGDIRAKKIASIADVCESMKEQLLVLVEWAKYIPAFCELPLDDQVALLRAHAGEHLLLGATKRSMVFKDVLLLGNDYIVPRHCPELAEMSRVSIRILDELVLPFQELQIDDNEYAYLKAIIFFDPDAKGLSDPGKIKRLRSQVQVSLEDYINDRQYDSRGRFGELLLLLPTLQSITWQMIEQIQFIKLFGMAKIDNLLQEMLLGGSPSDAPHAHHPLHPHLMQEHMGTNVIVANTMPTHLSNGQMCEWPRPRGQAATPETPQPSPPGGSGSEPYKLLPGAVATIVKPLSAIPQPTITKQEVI
Bfl-1 A1 inh – caspase 3/7 activation in MEF A1-2A-BIM cells, primary screen, A1 inhibitor project, cell-based, luminescence, HTS; Caspase-Glo 3/7 luminescence, 3 h; percent of clofoctol response, vehicle zero; AID 2462, 2010; caspase activation, % (test concentration not listed); 330,000 tested, 0.066% active;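 active = over half of replicate activation scores above 10%, or exactly half above 10 with the replicate mean above 10; inconclusive = replicate mean below 10 yet half the replicates above 10; inactive = over half of replicates below 10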;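 note: wells of about 30 µL received 50 nL stock; many hits fall short of the cut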
Active calls of the source: *; ? = inconclusive; . = no result given.

SMILES	LANA-H2A inh	Vif TR-FRET	UCH37 inh	B2AR ag	E coli growth	HNF4A DNA FP	Bfl-1 A1 inh
Cc1ccsc1C1C(C#N)=C(N)N(N(C)C)C2=C1C(=O)CC(C)(C)C2 (stereo not given)	-4.8	-5%	-13	4	0.71	-2.7	0.4
CN(C)Cc1cc(CCNC(=O)c2ccc(Cl)cc2)ccc1O	-3.3	-1%	2.0	-1	0.69	2.4	0.3
S=C1NCN(CCc2ccccc2)CN1Cc1ccccc1	-1.5	10%	2.4	2	0.71	1.1	0.0
CCOc1ccc(C(=O)NC2CCN(C(=O)Nc3ccccc3OC)CC2)cc1	-2.7	-7%	1.6	2	0.69	2.2	0.4
CNC(=O)c1c(NC(=O)c2cccc(C)c2)sc2c1CCC2	1.1	.	-37	16	0.67	1.2	-0.3
O=C(NC(=S)NCCSc1ccccc1)c1cccnc1	-3.4	.	3.4	-12	0.72	5.1	-0.5
O=C(CCN1CCN(c2ccccc2)CC1)Nc1nccs1	1.7	4%	0.3	-6	0.7	2.7	1.2
N#CCOc1nc(N2CCCCC2)nc(N2CCCCC2)n1	-3.5	2%	5.3	-1	0.69	0.2	0.1
O=C(NN1CCOCC1)c1ccc(Cl)cc1[N+](=O)[O-]	-0.9	6%	-1.2	5	0.68	5.0	1.1
Cc1oc(CC(C)C)cc1C(=O)NCCCC(=O)O	7.1	-4%	0.5	3	0.72	-0.4	-0.2
O=C(NC(=S)N1CCN(c2ccc(O)cc2)CC1)c1cccs1	-1.6	11%	5.5	13	0.68	-3.0	-1.1
CN(CC(=O)Nc1ccc(F)cc1)C(=O)c1ccc(OCc2ccccc2)cc1	.	-1%	2.1	2	0.69	3.2	.
Cc1cc(C)n(C(=O)c2ccc(S(=O)(=O)NCC3CCCO3)cc2)n1 (stereo not given)	3.7	1%	6.8	5	0.76	3.5	0.1
O=C(O)/C=C/C(=O)Nc1cccc2c1-c1ccccc1C2=O	.	-2%	.	-15	.	1.3	.
CCNc1nc(NCC)nc(N(C#N)CCOc2ccccc2)n1	-0.6	0%	1.0	8	0.65	0.1	0.0
Cc1ccc(S(=O)(=O)N2CCN(C(=O)Cc3ccsc3)CC2)c(C)c1	-2.2	-7%	-1.2	-5	0.7	1.4	0.5
CC(=NNC(=O)C(C)SC(C)C(=O)NN=C(C)c1cccnc1)c1cccnc1 (stereo not given)	.	-1%	4.2	-2	0.67	0.2	.
Cc1cc(NC(=O)C(=O)NCCN2CCN(S(C)(=O)=O)CC2)ccc1Br	1.6	3%	5.9	1	0.65	-2.2	-0.3
CNC(C)C#Cc1ccc2sc3cccc(OC)c3c(=O)c2c1 (stereo not given)	3.1	.	.	6	.	-0.6	-2.1
COc1ccc(N2C(=O)CC(NNC(=O)c3ccco3)C2=O)cc1 (stereo not given)	0.6	.	1.9	2	0.66	1.1	1.2
Cc1cccc(CS(=O)(=O)c2ncc(CO)n2C)c1	1.5	6%	-0.1	0	0.66	-0.7	0.4
C[C@@H]1CC[C@]2(C(=O)O)CC[C@]3(C)C(=CCC4[C@@]5(C)CC[C@H](O)[C@@](C)(C(=O)O)C5CC[C@]43C)C2[C@]1(C)O (stereo not given in full)	7.1	.	-0.9	-2	.	-0.3	1.6
Cc1cc2oc(C(=O)N3CCN(Cc4ccccc4)CC3)c(C)c2cc1C	1.7	.	2.2	1	0.66	1.6	-0.1
CCC(C(=O)O)N1C(=O)c2ccccc2C1=O (stereo not given)	12	-4%	0.1	9	0.69	3.4	0.1
CC(=O)c1ccc(NC(=O)c2sc3nc(N4CCOCC4)c4c(c3c2N)CCCC4)cc1	8.4	-5%	-40	10	0.72	3.7	-1.0

The results go on:
SMILES	LANA-H2A inh	Vif TR-FRET	UCH37 inh	B2AR ag	E coli growth	HNF4A DNA FP	Bfl-1 A1 inh
CC1CCN(c2ccc([N+](=O)[O-])cc2C(=O)N2CCOCC2)CC1	1.1	.	7.7	-1	0.61	-2.0	0.6
CCOC(=O)c1c(/N=C/c2cc(C)ccc2O)sc2c1CCC2	1.9	.	.	11	.	-3.0	0.3
CC(C)c1c(O)nc(SCC(=O)N2CCOCC2)[nH]c1=O	0.7	?	5.8	-1	0.72	2.9	0.4
c1ccc(-c2cn3nc(-c4ccccc4)cnc3n2)cc1	18	.	-64	1	0.69	10	-0.8
O=C(COC(=O)c1ccccc1N1C(=O)C2C3CCC(C3)C2C1=O)c1ccccc1 (stereo not given)	-0.3	3%	0.0	-4	0.69	-0.7	0.0
CCOc1ccc(S(=O)(=O)N2CCC(C(=O)NCC3CCCO3)CC2)cc1Cl (stereo not given)	5.5	.	-9.2	-9	0.65	-1.3	-0.3
COc1ccc(-c2nnc(SCC(=O)N3CCCCC3)o2)cc1OC	3.6	8%	6.7	-8	0.76	-2.0	-0.3
Cc1cc(C(F)(F)F)nc(-n2cc(-c3cccc(N)c3)nn2)n1	1.7	-4%	0.5	1	0.67	-1.4	1.0
CC(=O)Nc1ccccc1OCC(O)CS(=O)(=O)c1ccc(C(F)(F)F)cn1 (stereo not given)	0.5	-2%	2.2	-8	0.63	-3.5	0.7
Cc1cc(C)n(-c2cccc3cccnc23)n1	-0.3	1%	3.0	5	0.7	-1.6	-0.3
N/C(CCS(=O)(=O)c1ccc(Cl)cc1)=N\OC(=O)c1ccccc1C(F)(F)F	-9.5	0%	3.1	17	0.61	0.9	-1.4
Cc1nnc(N/N=C/c2ccc(O)c([N+](=O)[O-])c2)[nH]c1=O	-4.0	.	.	-1	.	-1.0	-2.4
CCCCCC(=O)Nc1sc(C)c(C)c1C#N	0.0	.	2.5	-8	0.68	-2.6	-0.3
CCC(C)CCN1C(Nc2ccccc2)=NC[C@@H]1Cc1ccccc1 (stereo not given in full)	1.4	.	-1.0	-3	.	5.2	0.0
Nc1nnn(CC(=O)N/N=C/c2ccc(O)cc2)n1	2.2	31%	.	-14	.	6.4	0.0
COc1cc(/C=C/C(=O)O)cc(OC)c1O	2.8	.	3.6	-6	.	-1.6	-0.1
Brc1ccc(C2Nc3cccc4cccc(c34)N2)o1	4.7	19%	-5.9	4	0.71	1.0	-1.4
Brc1c(CSc2nnc(-c3ccco3)o2)nc2ccccn12	5.5	31µM*	-3.2	-11	0.69	1.8	-0.5
COc1ccc(C(=O)Nc2nnc(S(=O)(=O)N3CCCCCC3)s2)cc1OC	-0.7	.	1.6	7	0.79	-0.2	-0.5
COc1ccc(NC(=O)CN2C(=O)COc3ccc(S(=O)(=O)N4CCOCC4)cc32)cc1Cl	6.2	.	4.3	-6	0.65	7.5	-0.3
CCOCCN1CCN(c2c3c(nc4cc(-c5ccc(F)cc5)nn24)CCC3)CC1	.	-1%	-34	-2	0.65	-3.5	.
N#Cc1ccc(OC(=O)Cc2ccsc2)cc1	1.6	-8%	0.6	-4	0.69	3.2	0.2
CCOc1ccc(CCNC(=O)COC(=O)c2nc(Cl)ccc2Cl)cc1OCC	-0.2	2%	2.7	-1	0.68	1.7	-0.1
Cc1cccc(N2CCN(C(=O)CN3C(=O)C4CC=CCC4C3=O)CC2)c1C (stereo not given)	1.6	.	5.2	7	0.67	-0.1	-0.2
CC1Cc2ccccc2N1C(=O)CSc1nnc(-c2ccc(S(=O)(=O)N3CCCC3)cc2)n1C (stereo not given)	15*	16%	-0.8	0	0.7	2.8	0.3

Later entries:
SMILES	LANA-H2A inh	Vif TR-FRET	UCH37 inh	B2AR ag	E coli growth	HNF4A DNA FP	Bfl-1 A1 inh
CCn1c(COc2cccc(OC)c2)nnc1SCC(=O)Nc1cc(OC)ccc1OC	-4.1	?	5.9	3	0.71	1.6	-0.5
COc1ccc(C)cc1NC(=O)c1ccc2c(SCC(=O)O)c3c(nc2c1)CCCC3	4.7	-5%	4.4	3	0.71	1.2	0.1
COC(=O)NCC1(C)CC(NC(=O)OC)CC(C)(C)C1 (stereo not given)	6.9	0%	-0.5	3	0.68	2.1	-1.2
Cc1ccc(O)c(C2=NCCNC(C(F)(F)F)=C2)c1	2.2	4%	11	6	0.72	4.0	0.8
O=C(Nc1ccccc1F)N1CCc2ccccc2C1	1.5	.	4.7	19	0.72	-4.5	-4.2
COc1cc(C2C(C(C)=O)=C(O)C(=O)N2CCc2ccc(OC)c(OC)c2)ccc1O (stereo not given)	5.4	24%	0.7	4	0.73	1.6	0.8
O=C(Nc1nn[nH]n1)c1cccc(Oc2ccccc2)c1	-0.6	23%	-1.3	-19	0.73	-1.2	0.5
COc1ccccc1NC(=O)COC(=O)CC(C)(C)CC1=NS(=O)(=O)c2ccccc2N1	8.1	.	1.6	3	0.65	-1.1	0.8
CC1CCCCC12NC(=O)N(CC(=O)N1CCN(C(=O)c3ccco3)CC1)C2=O (stereo not given)	1.0	-11%	4.3	5	0.67	-1.9	2.8
COc1ccc(Cc2nnc(Cl)c3ccccc23)cc1OC	-1.6	-11%	6.1	1	0.69	2.0	0.3
CC(C)[C@H](N[C@@H](C)c1ccccc1)c1c(O)ccc2ccccc12	4.4	.	-1.9	6	0.69	2.2	0.7
CCCCOc1ccc(/C=N/NC(=O)C2CCCNC2=O)cc1 (stereo not given)	-10	10%	.	-10	.	0.8	1.4
O=C(Nc1ccc(N2CCOCC2)c(S(=O)(=O)Nc2ccccc2Cl)c1)c1ccc(=O)[nH]n1	.	.	3.1	5	0.69	3.6	.
COc1ccc2cc(CCNC(=O)c3cccs3)c(=O)[nH]c2c1	-0.9	?	4.3	1	0.71	0.5	0.2
CC(C)n1c(=S)[nH]c2cc(C(F)(F)F)ccc21	-2.3	-1%	1.7	-3	0.69	-2.1	0.3
S=C(NCCc1ccc(Cl)cc1)NC1CCCC1	-0.1	.	0.8	-16	0.67	2.8	0.0
C/C(=N\Nc1nc2ccccc2[nH]1)c1ccccn1	-3.0	.	.	20	.	2.2	0.5
Cc1cc(C)c(C)c(S(=O)(=O)Nc2cccnc2)c1C	-0.8	.	1.5	-2	0.69	-1.8	-0.8
COC(=O)[C@@]1(Cc2ccc(OC)cc2)[C@H]2c3cc(C(=O)N(C)C)n(CCc4ccc(OC)c(Br)c4)c3C[C@H]2CN1C(=O)c1ccccc1	0.0	-1%	0.3	.	.	.	0.2
O=C(c1cc(-c2cccnc2)nc2ccccc12)N1CCN(S(=O)(=O)c2ccc(Cl)s2)CC1	.	.	0.1	8	0.71	-0.4	.
Cc1ccccc1-c1nnc(SCC(=O)NC2CCCCC2)o1	5.6	29%	0.9	-11	0.76	1.0	0.4
Cc1cccc(C(=O)NNC(=O)CSc2nnc(C(C)C)n2C)c1	-3.9	.	0.2	-5	0.7	0.7	-0.2
CCS(=O)(=O)c1ccc2c(c1)N(S(=O)(=O)c1cccs1)CC(C(=O)O)O2 (stereo not given)	-8.5	.	-0.7	7	0.7	-0.3	-0.4

Reprinted at random: four entries already listed
SMILES	LANA-H2A inh	Vif TR-FRET	UCH37 inh	B2AR ag	E coli growth	HNF4A DNA FP	Bfl-1 A1 inh
Cc1cc(C)c(C)c(S(=O)(=O)Nc2cccnc2)c1C	-0.8	.	1.5	-2	0.69	-1.8	-0.8
O=C(Nc1ccc(N2CCOCC2)c(S(=O)(=O)Nc2ccccc2Cl)c1)c1ccc(=O)[nH]n1	.	.	3.1	5	0.69	3.6	.
S=C(NCCc1ccc(Cl)cc1)NC1CCCC1	-0.1	.	0.8	-16	0.67	2.8	0.0
COc1ccc(Cc2nnc(Cl)c3ccccc23)cc1OC	-1.6	-11%	6.1	1	0.69	2.0	0.3
